Screening results from PubChem.
PINK1 expr mod – PINK1 expression modulation; actives 0.2% (n = 410,000); PINK1 immunofluorescence, high-content cytometry, 24 h; Potency, µM (series often up to 76.6 µM), for the others: top-dose activation (PINK1 increase), actives largely listed as activators; active = well fitted activation curve with a large enough effect; inconclusive = small, poorly fitted or top-dose-only effect; inactive = flat fitted curve, though single readings scatter; cell line not stated here;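 further: potency means the concentration at half of the fitted maximal effect; % of control where 0% means no effect; nearly all actives have a fitted effect of over 65% in size; a mitochondrial uncoupler was the plate control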
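Cells are seeded, rested 12 hours, then given compound at five concentrations or DMSO for 24 hours. After fixation, blocking and antibody staining, PINK1 amount and mitochondrial localization are scored; CCCP serves as control.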
D2 ag – human D2 receptor agonism in beta-arrestin assay. DiscoveRx PathHunter D2 beta-arrestin, luminescence, 90 min; 100% = 57 uM dopamine signal. activation, % (no concentration beside the values). actives 0.084% (n = 360,000). AID 624465; in the data active = activation above about 40%; inconclusive = about 15% to 40%; inactive = below about 15%; further: compound concentration not given in the record; the text of the record calls up to 30% inactive
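Agonist mode: compounds alone added to overnight-plated D2 PathHunter cells for 90 min at 37 C, with 57 uM final dopamine (EC100) defining full response. Beta-arrestin recruitment detected by chemiluminescent reagent, read after 1 h at ambient temperature.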
D2 PAM – potentiates the human D2 dopamine receptor allosterically | P14416 | DiscoveRx D2 beta-arrestin cells, luminescence, 90 min; 100% = 57 uM dopamine signal | potentiation, % (concentration not given with the values) | actives 0.23% (n = 360,000) | AID 624464; active = potentiation of 50% or more; inconclusive = 30% to 50%; inactive = 30% or less;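 further: compound concentration not given in the record; tested on top of an EC20 dose of dopamine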
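PathHunter beta-arrestin assay in DiscoveRx D2 cells. Compounds were added with an EC20 of dopamine (50 nM final) for 90 min at 37 deg C. Luminescence was read 1 h after detection reagent, with 57 uM dopamine as the EC100 control.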
TRPML1 ag – agonists of human TRPML1 channel | Q9GZU1 | TRPML1-expressing cells, Ca2+ dye fluorescence, FDSS; host cell line not named in the record; reference of the full effect not given here | activation, % (no concentration beside the values) | actives 0.12% (n = 410,000) | AID 624414; in the data active = activation above about 50%; inconclusive = about 30% to 50%; inactive = below about 30%; further: 0% is about no effect; the text of the record puts the active cut at 80%
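Cells: TRPML1-DL, 1X Tet inducer, ~16 h at 37 degrees C/5% CO2. Dye: ABD Ca8 no-wash + quencher, 45-90 min RT. Read: 10 s baseline, compound add, 110 s agonist phase; 54-4 EC80 (4uM final), 110 s antagonist phase.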
Six1-Eya2 inh – Six1/Eya2 interaction inhibition; Q15475+O00167; AlphaScreen GST-Six1/His-Eya2 binding, biochemical; hits give low values; control for the full effect not named in the record; activity change, % (no concentration beside the values); actives 0.56% (n = 360,000); AID 651725; in the data active = activity change below about -65%; inconclusive = about -30% to -65%; inactive = above about -30%; further: on the % scale 0 is the no-effect control and ±100 the full control effect; compound concentration not given in the record
Target sequence (O00167 whole entry, looked up): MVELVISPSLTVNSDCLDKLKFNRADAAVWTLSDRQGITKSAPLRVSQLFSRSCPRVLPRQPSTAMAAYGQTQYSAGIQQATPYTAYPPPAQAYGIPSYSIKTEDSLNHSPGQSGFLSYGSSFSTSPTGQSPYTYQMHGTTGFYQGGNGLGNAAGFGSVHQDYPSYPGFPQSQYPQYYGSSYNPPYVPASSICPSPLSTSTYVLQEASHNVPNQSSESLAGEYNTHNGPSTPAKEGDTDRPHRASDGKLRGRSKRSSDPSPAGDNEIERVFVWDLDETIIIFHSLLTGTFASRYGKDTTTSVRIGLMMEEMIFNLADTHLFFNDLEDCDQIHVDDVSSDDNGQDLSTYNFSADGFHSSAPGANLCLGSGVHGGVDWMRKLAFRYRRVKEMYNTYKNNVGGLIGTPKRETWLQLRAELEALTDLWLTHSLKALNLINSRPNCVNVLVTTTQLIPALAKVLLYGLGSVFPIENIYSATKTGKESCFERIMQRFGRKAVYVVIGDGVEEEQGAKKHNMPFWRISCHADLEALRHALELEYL
Target sequence (Q15475 whole entry, looked up): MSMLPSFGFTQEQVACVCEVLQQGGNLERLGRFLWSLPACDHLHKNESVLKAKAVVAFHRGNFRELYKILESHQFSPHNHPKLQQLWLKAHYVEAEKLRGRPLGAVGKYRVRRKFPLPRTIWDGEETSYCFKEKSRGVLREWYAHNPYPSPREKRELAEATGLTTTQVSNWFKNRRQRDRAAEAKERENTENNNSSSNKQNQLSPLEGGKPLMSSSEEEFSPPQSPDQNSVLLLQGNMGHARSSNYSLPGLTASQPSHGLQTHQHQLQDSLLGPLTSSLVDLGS
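Six1/Eya2 binding was read as AlphaScreen signal after compounds were pinned into GST-Six1 plus His-tagged Eya2 (5X stock 250/500 nM) in pH 8.0 Tris/NaCl/TCEP buffer, beads added, then incubated 1 h, 37 C, dark.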
TRPML1 inh – inhibitors of human TRPML1 channel. Q9GZU1. TRPML1-inducible cells, Ca2+ dye fluorescence, FDSS; hits give low values; inhibition of EC80 agonist-evoked calcium signal. activity change, negative = inhibition, % (concentration not given with the values). actives 0.02% (n = 390,000). AID 624415; in the data active means activity change below about -50%; inconclusive means about -30% to -50%; inactive means above about -30%;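 further: stimulus is agonist 54-4 at its EC80 concentration; on the % scale 0 is the no-effect control and ±100 the full control effect; compound concentration not given in the record; the text of the record puts the active cut at -80%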
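TRPML1-DL cells, Tet-induced overnight (~16 h, 37 °C) at 1,500 cells/well, were loaded with Ca8 no-wash dye plus quencher for 45-90 min at room temperature. Compounds were pinned during FDSS kinetic reading; agonist 54-4 at EC80 (4 uM final) then added.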
* hit, by the source's call; u = inconclusive; x = no result given; & = joins results of further samples; [ ] = dose if it differs, or a comment. An excerpt (hit frequency here may not be typical).

Each structure is followed by: PINK1 expr mod, D2 ag, D2 PAM, TRPML1 ag, Six1-Eya2 inh, TRPML1 inh
> COc1ccc(C(=O)C2(C)N(O)C(C)C(c3cccs3)=[N+]2[O-])cc1 (stereo not given)
    3.9%[38.3 µM], 0.6, 3.0, 0.2, 1.2, -7.4
> CN1CC[C@]23c4c5ccc(O)c4OC2C(O)C=CC3[C@H]1C5 (stereo not given in full)
    -1.1%, -2.3, -25.7, 0.3, 4.8, -1.4
> O=C(NC(Oc1ccccc1)C(Cl)(Cl)Cl)c1ccccc1 (stereo not given)
    3.6%, -1.5, -3.7, 4.4, 1.1, -6.3
> Nc1cccc2c1Cc1cc([N+](=O)[O-])ccc1-2
    0.3%, 1.3, -1.8, 0.9, 7.3, 22.1
> C[C@]12CCC(=O)C=C1CCC1C2CC[C@@]2(C)C1CC[C@@H]2O (stereo not given in full)
    -0.3%, 4.5, 2.6, -0.5, 2.7, 10.4
> CN1C2CCC1CC(OC(=O)c1ccc(Cl)cc1)(C(=O)O)C2 (stereo not given)
    0.1%, -2.5, -8.5, 0.8, 2.0, -17.9
> N#CCCCCC#N
    0.1%, 3.3, -2.3, 0.2, 8.8, 3.0
> CCCCCC[N+](=O)[O-]
    -0.1%, -1.8, 1.4, 0.5, -0.9, -18.7
> CCCc1nc2ccccc2c(=O)n1-c1ccccc1OC
    -1.5%, -3.7, 2.8, -1.2, -1.3, -1.6
> O=C1NC(=O)C(CCc2ccccn2)(Cc2ccc3c(c2)OCO3)C(=O)N1CCc1ccccc1 (stereo not given)
    -0.9%, -2.2, -4.2, 2.2, -9.7, 15.2
> CCN1CCN(c2ccc([N+](=O)[O-])cc2C=C2C(=O)NC(=O)NC2=O)CC1
    -1.8%, -3.3, -29.6, 0.5, -7.3, -4.5
> COc1cc2c(cc1OC)CC[N+](C)=C2
    1.1%, 4.1, -3.0, x, 8.6, x
> Cc1oc(-c2cccs2)nc1CSCC(=O)N1CCC2(CC1)OCCO2
    0.6%, -1.4, -3.1, 0.0, -15.0, -12.8
> CCC1(CC)C(=O)C=CNC1=O
    0.3%, -5.0, -3.9, 0.3, 3.4, -3.1
> C(#CCN1CCCCC1)CN1CCCCC1
    -0.5%, -6.2, -4.1, 0.1, 2.2, x
> O=NN1CCCCC1
    -0.3%, 4.5, -9.5, -0.2, -1.6, -10.1
> CN1CCN(c2ccc3nccnc3c2)CC1
    1.7%, 0.2, 5.9, 0.6, 4.6, -5.1
> CC1OC(C[N+](C)(C)C)CC1O (stereo not given)
    1.0%, -1.2, -1.2, 3.8, 1.9, 15.3
> Brc1ccc2[nH]cc(C=NN3CCCCCC3)c2c1
    6.1%, -3.9, -16.0, 2.0, -2.9, -5.5
> CCCCCSc1cc(OC)c(CCNC)cc1OC
    -3.7%, -0.4, -33.6, 0.3, u, -8.1
> N[C@@H](Cc1c[nH]c2ccccc12)c1nnc(SCc2ccc(Cl)cc2)o1
    3.0%, 0.6, 15.0, 1.8, -21.9, 4.5
> Cc1ccc2cccc(OC(=O)N(C)c3ccccc3)c2n1
    1.3%, -3.1, -32.0, -0.6, 2.7, 25.4
> O=C1NC(=O)C(Cc2cccs2)C(=O)N1
    -0.9%, 0.7, 5.3, -0.5, -0.2, -1.4
> COc1ccc(NC(c2ccccc2F)P(=O)(Oc2ccccc2)Oc2ccccc2)cc1 (stereo not given)
    1.9%, -7.9, -7.7, 2.6, -18.2, 7.0
> Brc1ccc(Oc2ccc(Br)cc2Br)c(Br)c1
    11.3%, 5.9, 0.3, -0.8, -1.2, 1.1
> COc1cc(O)c(C(=O)O)c(-c2cc(O)c(O)cc2C)c1
    -0.4%, 7.6, -0.1, -0.6, -6.7, -1.4
> CN1CC=C2C(C#N)=C(N)C(C#N)(C#N)C(c3ccncc3)C2C1 (stereo not given)
    25.1µM*, -2.8, -17.2, 3.7, -8.2, 29.4
> O=c1[nH]c(=S)n(CCC2=CCCCC2)c(O)c1C=NCCCn1ccnc1
    1.7%, -1.3, -16.8, 0.0, -11.6, -6.4
> CN1C2CCC1C(COC(=O)c1ccccc1)C(O)C2 (stereo not given)
    4.5%, -4.0, 4.0, -0.1, 4.6, 22.3
> CCc1ccc(CN2CCCC(C(=O)c3sccc3C)C2)o1 (stereo not given)
    6.4%, -4.0, -6.1, 1.2, -10.6, -16.7
> CCOC(=O)[C@]12Cc3c(cc(OC)c(OC)c3OC)[C@H]1N(C1CCCCC1)C(=O)c1ccccc12
    -1.2%, x, x, -1.3, 2.7, x
> N#CC1=C(N)Oc2c(c(=O)sc3ccccc23)C1c1cccnc1 (stereo not given)
    5.5%, 7.7, -0.3, 1.5, -3.5, 43.9
> CCN(CC)C(=O)c1ccc(NC(=O)c2cc(-n3cnnc3)ccc2Cl)cc1
    0.4%, 1.2, 1.9, -0.9, 0.9, -14.8
> CC1CC(OC(=O)c2ccccc2)(c2ccccc2)C(C)CN1C (stereo not given)
    -1.7%, -7.7, -3.4, 3.9, -2.1, 9.5
> C[C@]12CC[C@H](O)CC1=CCC1C2CC[C@]2(C)C(=O)[C@H](Br)CC12 (stereo not given in full)
    -6.2%, 2.1, 1.4, 2.4, -2.9, -4.9
> Cc1cc(OC(=O)c2cccs2)c2c3c(c(=O)oc2c1)CCCC3
    0.5%, -8.8, -3.8, 1.5, -10.4, 12.4
> COC(=O)C1=C(c2cc3ccccc3s2)C[C@@H]2CC[C@H]1N2C(=O)NCc1ccc(F)cc1
    3.5%, -5.2, -23.8, 3.2, -3.4, 3.9
> C[C@H]1CC[C@@H]2[C@@H](C)[C@H]3[C@H](C[C@H]4[C@@H]5CC=C6C[C@@H](O[C@@H]7O[C@H](CO)[C@H](O)[C@H](O[C@@H]8O[C@H](CO)[C@@H](O)[C@H](O)[C@H]8O)[C@H]7O[C@@H]7O[C@@H](C)[C@H](O)[C@@H](O)[C@H]7O)CC[C@]6(C)[C@H]5CC[C@]34C)N2C1
    -0.5%, -3.0&-1.5, -22.7, x, 0.7, x
> CC(C)c1ccc(OCC(=O)N2CCCN(C)CC2)cc1
    -1.0%, -0.4, -6.6, -0.8, 0.2, -8.9
> COC(=O)C(O)(c1c(C)[nH]n(-c2ccccc2)c1=O)C(F)(F)F (stereo not given)
    3.8%, -2.2, -8.9, -0.2, -10.4, -3.6
> CCOc1cc(C(=O)N2CCC3(CC2)OCCO3)cc(OCC)c1OCC
    -5.4%[38.3 µM], -1.7, -9.8, -0.5, 1.4, -6.8
> COc1ccc(C(=O)c2nc3ccccc3n2C(C)C)cc1OC
    -1.6%, 7.6, -2.2, 2.6, 2.5, 82.5
> O=C(CN1CCCC1=O)Nc1ccccc1
    1.2%, 5.7, 0.6, -0.6, -0.5, 26.0
> OC(CN1CCOCC1)c1csc2ccccc12 (stereo not given)
    -0.5%, -4.8, 4.5, -0.5, 0.0, -8.3
> Cc1ccc(S(=O)(=O)NCCC(=O)Nc2ccc(Cl)cc2C(=O)c2ccccc2)cc1
    -0.1%, -3.4, -1.3, 0.6, -11.1, 5.7
> C=Cn1ccnc1P(=S)(c1ccccc1)c1nccn1C=C
    1.3%, -0.4, 4.5, -0.5, -2.3, 16.2
> COc1ccc(C2SCC(=O)Nc3c2c(=O)[nH]n3C2CCCCC2)cc1 (stereo not given)
    -0.5%, -3.4, -0.1, 0.7, 1.2, 17.0
> COc1ccc(Oc2c(C)oc3cc(OC(=O)N(C)C)ccc3c2=O)cc1
    -3.6%, -7.3, 0.9, 0.8, -0.7, -17.7
> Oc1ccccc1-[n+]1c(-c2ccccc2)cc(-c2ccccc2)c(O)c1-c1ccccc1
    -0.4%, 1.6, -5.4, 1.4, -14.5, 15.9
> O=c1[nH]c(=O)n(CCc2ccccc2)c(O)c1C=NCCN1CCNCC1
    4.3%, -0.8, 7.3, 2.0, 31.2, -11.7
> Cc1cc(OCC(=O)N2CCN(CCc3ccncc3)CC2)ccc1Cl
    0.2%, x, x, 0.0, x, 40.6
> O=C(O)c1c[nH]c2ccc(S(=O)(=O)N(CCCl)CCCl)cc12
    -1.7%, 1.3, -0.2, -0.5, 0.4, 0.5
> c1ccc(CCNCc2cccnc2)cc1
    0.8%, -4.8, -1.7, 0.5, 3.1, 8.6
> COc1ccc2c(c1)C1(C(=O)O)CC=CCC1(C(=O)O)C2 (stereo not given)
    -5.1%, -1.8, -13.7, -0.1, 5.5, -1.1
> O=C1/C(=C\c2ccccc2)C2OCC=C3CN4CCC56c7ccccc7N1C5C2C3CC46 (stereo not given)
    -0.4%, -5.0, -28.2, 0.7, 4.4, 13.0
> O=[N+]([O-])c1cc([As](=O)(O)c2ccc(O)c([N+](=O)[O-])c2)ccc1O
    0.3%, -5.7, -12.8, 1.2, 7.8, 5.2
> Cc1c(C(=O)c2cccc3ccccc23)c2cccc3c2n1[C@H](CN1CCOCC1)CO3
    2.1%, -1.3, -7.9, -0.3, -22.6, 20.2
> CCN(CC)C(=O)c1ccc(NC(=O)CCn2nc(-c3ccc(Cl)cc3)c3ccccc3c2=O)cc1
    3.5%, x, x, 1.5, x, -0.4
> C=CCN1CC[C@]23c4c5ccc(O)c4O[C@H]2/C(=N/NC(=O)c2ccccc2)CC[C@@]3(O)[C@H]1C5
    1.9%, 2.9, 6.5, -0.3, -4.5, 23.2
> Cc1ccccc1C1=NCC(=O)N(CC(=O)NCc2ccco2)c2sc3c(c21)CCCC3
    x, -1.3, 4.9, 1.8, -5.0, -0.5

Compound profiles, as listed above.
Record of COc1ccc(C2SCC(=O)Nc3c2c(=O)[nH]n3C2CCCCC2)cc1 (stereo not given) → PINK1 expr mod: -0.5%; D2 ag: -3.4; D2 PAM: -0.1; TRPML1 ag: 0.7; Six1-Eya2 inh: 1.2; TRPML1 inh: 17.0
Record of O=C(O)c1c[nH]c2ccc(S(=O)(=O)N(CCCl)CCCl)cc12 → PINK1 expr mod: -1.7%; D2 ag: 1.3; D2 PAM: -0.2; TRPML1 ag: -0.5; Six1-Eya2 inh: 0.4; TRPML1 inh: 0.5

Later entries
Each structure is followed by: PINK1 expr mod, D2 ag, D2 PAM, TRPML1 ag, Six1-Eya2 inh, TRPML1 inh
> CCN1C(=O)C(=Cc2c(C)n(CC(=O)NCC3CCCO3)c3ccccc23)C(=O)N(CC)C1=S (stereo not given)
    1.2%, -3.5, -5.1, -0.2, -15.1, 5.1
> COC(=O)C1=C(c2ccccc2)C[C@@H]2CC[C@H]1N2C(=O)NCc1ccccc1
    -0.5%, -0.8, -13.2, 0.5, 1.0, u
> CCOP(=O)(Cc1ccc(C(=O)CC)o1)OCC
    1.2%, 6.8, -4.0, 0.5, 4.7, 15.7
> C[C@@H]1O[C@@H](O[C@@H]2C=C3CC[C@@H]4C(CC[C@]5(C)[C@@H](c6ccc(=O)oc6)CC[C@]45O)[C@@]3(C)CC2)[C@H](O)[C@H](O)[C@H]1O (stereo not given in full)
    -0.2%, 5.4, 8.9, -0.6, -8.7, -14.8
> COc1ccc(-c2ccc(OC)c(OC)c2OC)cc1
    4.5%, -2.7, -4.1, 0.4, -7.9, 8.2
